miR-21 reporter: qHTS Assay for Modulators of miRNAs and/orActivators of miR-21 | 340,000 tested, under 10 active | Potency, µM (highest dose often 38.3 µM), inactives show at the top dose reporter change, positive = more light | HeLa miR-21 FLuc reporter, luciferase, 48 h; active = well fitted rising curve with a large enough effect; inconclusive = small, poorly fitted or top-dose-only effect; inactive = no such curve, though single readings can be large or run the other way;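 further: % of control where 0% means no effect; miR-21 action dims this reporter so a rising signal means less miR-21 action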
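HeLa cells stably expressing CMV-driven firefly luciferase with a downstream miR-21 binding sequence, endogenously expressing miR-21, were treated with titrations (up to about 40uM final) for 48 hours at 37 degree Celsius. Luciferase luminescence was read after lysis.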
Rango complex inh: qHTS Assay for Inhibitors of Rango (Ran-regulated importin-beta cargo) - Importin beta complex formation | Rango CFP/YFP FRET sensor + importin beta, 45 min | Potency, µM (top dose mostly 92.2 µM), without a hit: at the top dose inhibition of complex formation | actives 0.031% (n = 340,000) | Importin subunit beta-1 (Homo sapiens), Q14974; active = rising FRET ratio curve, often small or poorly fitted; inconclusive = mostly compound fluorescence or quenching in the first reads; inactive = flat curves in all reads;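 further: potency means the concentration at half of the fitted maximal effect; 0% = DMSO wells and 100% = buffer wells lacking importin beta; nearly all actives have a fitted effect of over 15% in size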
Target sequence (Q14974 whole entry, looked up): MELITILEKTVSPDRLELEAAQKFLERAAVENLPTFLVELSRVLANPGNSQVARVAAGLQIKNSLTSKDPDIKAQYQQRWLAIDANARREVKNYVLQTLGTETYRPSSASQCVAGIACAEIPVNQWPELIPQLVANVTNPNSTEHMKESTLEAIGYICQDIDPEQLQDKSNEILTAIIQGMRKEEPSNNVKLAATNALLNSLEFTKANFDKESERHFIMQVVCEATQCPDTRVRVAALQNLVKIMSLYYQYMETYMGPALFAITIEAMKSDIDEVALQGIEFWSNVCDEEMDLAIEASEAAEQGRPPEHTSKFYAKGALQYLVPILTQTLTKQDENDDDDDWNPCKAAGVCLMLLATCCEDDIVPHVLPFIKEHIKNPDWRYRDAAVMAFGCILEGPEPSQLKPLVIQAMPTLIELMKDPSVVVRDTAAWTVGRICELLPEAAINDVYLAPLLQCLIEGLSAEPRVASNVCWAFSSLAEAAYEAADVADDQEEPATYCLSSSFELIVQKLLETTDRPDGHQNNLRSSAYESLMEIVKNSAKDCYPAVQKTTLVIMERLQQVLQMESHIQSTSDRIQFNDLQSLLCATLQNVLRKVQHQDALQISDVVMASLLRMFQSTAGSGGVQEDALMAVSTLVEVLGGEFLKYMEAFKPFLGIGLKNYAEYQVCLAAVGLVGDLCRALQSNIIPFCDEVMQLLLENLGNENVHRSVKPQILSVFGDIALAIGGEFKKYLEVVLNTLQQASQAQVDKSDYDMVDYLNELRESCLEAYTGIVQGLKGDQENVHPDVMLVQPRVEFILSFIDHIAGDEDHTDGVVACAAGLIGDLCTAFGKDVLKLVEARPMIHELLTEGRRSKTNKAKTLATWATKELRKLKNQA
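Inhibition scored from the CFP 486 nm/YFP 530 nm FRET ratio 45 min after adding 0.125 microM importin beta to 50 nM Rango biosensor preincubated 5 min with compound (room temperature, PBS with DTT, Tween-20, BSA). No-importin wells as positive control.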
GLA inh pH 4.5: qHTS Assay for Inhibitors of Human alpha-Galactosidase at pH 4.5; Alpha-galactosidase A (Homo sapiens), P06280; 230,000 tested, under 10 active; activity change, negative = inhibition, % at 105 µM; AID 1467, 2008; purified enzyme, 4-MU-alpha-Gal fluorescence, pH 4.5; inconclusive = small, poorly fitted or top-dose-only inhibition, or a rising curve; inactive = flat fitted curve, though single readings scatter; no compound was filed as active;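 further: 0% = full activity with enzyme and -100% = basal without enzyme; dose as in the result columns while the protocol names 77 µM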
Rango release inh: qHTS Assay for Inhibitors of RanGTP induced Rango (Ran-regulated importin-beta cargo) - Importin beta complex dissociation. Biochemical FRET Rango-importin beta, RanGTP-induced dissociation. actives 0.071% (n = 340,000). Potency, µM (titrated, usually from 46.1 µM), for the others: top-dose activity change, negative = inhibition; active means falling FRET ratio curve, often poorly fitted, with flat reads before Ran was added; inconclusive means other falling curves, or compound fluorescence or quenching; inactive means flat or rising ratio curve;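 further: potency means the concentration at half of the fitted maximal effect; % of control where 0% means no effect; nearly all actives have a fitted effect of over 45% in size; -100% = wells without RanGTP and RCC1; the record marks most hits as doubtful in a second field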
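Rango/importin beta premix (0.1/0.25 uM final), PBS + 1 mM DTT + 0.02% Tween-20 + 0.1% BSA; cpd 5 min RT; FRET pre-read; + RanGTP-RCC1 (0.6 uM Ran, 2 mM GTP, 0.2 uM RCC1); 45 min RT; FRET post-read, ex 430, em 486/530 nm.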
Starred values were filed as active, the others as inactive; ? = inconclusive; / = no result given.

The line under a structure holds: miR-21 reporter, Rango complex inh, GLA inh pH 4.5, Rango release inh
> Cc1cc(C)cc(OCC(=O)OCC(=O)c2c(N)n(C)c(=O)n(C)c2=O)c1
  -2%, -0.4%, 10, 18%
> O=C(NCCOC(=O)c1ccccc1)c1ccc([N+](=O)[O-])cc1
  -2%, 0.3%, /, -1%
> CCCCN(Cc1cc2ccccc2[nH]c1=O)C(=O)c1ccccn1
  -1%, 4.8%, -4, 0%
> CC(=N)C1=C(O)CC(c2ccccc2)CC1=O (stereo not drawn)
  -5%, -2.1%, /, -4%
> CCCc1cc(=O)[nH]c(SCC(=O)N2CCCC2=O)n1
  /, 1.8%, /, 3%
> COc1ccc(CNC(=O)CCS(=O)(=O)c2ccc3c(c2)CCN3C(C)=O)cc1
  -1%, -4.1%, /, 1%
> COc1cc(/C=N/OCC(=O)NC2CCCCC2C)ccc1OCc1ccc(Cl)cc1 (stereo not drawn)
  -78%, -1.9%, -15, 11%
> CCC1(C)Cc2c(sc3[nH]c(=O)[nH]c(=O)c23)CS1 (stereo not drawn)
  -17%, ?, ?, ?
> CCOC(=O)C1CCN(c2c(N3CCCC(C(=O)OCC)C3)c(=O)c2=O)CC1 (stereo not drawn)
  -5%, 0.6%, 0, -13%
> Cc1cc(C)cc(-n2c(O)c(C=NC3CCS(=O)(=O)C3)c3ccccc3c2=O)c1 (stereo not drawn)
  -6%, 0.6%, 0, -3%
> Nc1c(N(CCO)C(=O)C2CCCCC2)c(=O)[nH]c(=O)n1Cc1ccccc1
  -4%, ?, -9, -25%
> Cc1cc2c(c(=O)o1)C(CC(C)C)C(C#N)=C(N)O2 (stereo not drawn)
  0%, -0.2%, 1, -6%
> CC(CCc1ccccc1)NCC#N (stereo not drawn)
  -1%, 3.2%, -9, 35%
> CNC(CC(C)C)C(=O)NC1C(=O)NC(CC(N)=O)C(=O)NC2C(=O)NC3C(=O)NC(C(=O)NC(C(=O)O)c4cc(O)cc(O)c4-c4cc3ccc4O)C(O)c3ccc(c(Cl)c3)Oc3cc2cc(c3OC2OC(CO)C(O)C(O)C2OC2CC(C)(N)C(O)C(C)O2)Oc2ccc(cc2Cl)C1O (stereo not drawn)
  /, 0.7%, /, 13%
> CC[C@H](C)[C@H](NC(=O)OCc1ccccc1)C(=O)OCC(=O)N1CCN(c2ccc(OC)cc2)CC1
  /, -0.9%, /, -1%

Entries of single compounds from above.
Entry for CCOC(=O)C1CCN(c2c(N3CCCC(C(=O)OCC)C3)c(=O)c2=O)CC1 (stereo not drawn) : miR-21 reporter: -5%; Rango complex inh: 0.6%; GLA inh pH 4.5: 0; Rango release inh: -13%
Entry for Cc1cc(C)cc(-n2c(O)c(C=NC3CCS(=O)(=O)C3)c3ccccc3c2=O)c1 (stereo not drawn) : miR-21 reporter: -6%; Rango complex inh: 0.6%; GLA inh pH 4.5: 0; Rango release inh: -3%

Part of the list above in order of count of non-hydrogen atoms, high to low:
The line under a structure holds: miR-21 reporter, Rango complex inh, GLA inh pH 4.5, Rango release inh
> Cc1cc(C)cc(-n2c(O)c(C=NC3CCS(=O)(=O)C3)c3ccccc3c2=O)c1 (stereo not drawn)
  -6%, 0.6%, 0, -3%
> O=C(NCCOC(=O)c1ccccc1)c1ccc([N+](=O)[O-])cc1
  -2%, 0.3%, /, -1%
> Cc1cc2c(c(=O)o1)C(CC(C)C)C(C#N)=C(N)O2 (stereo not drawn)
  0%, -0.2%, 1, -6%

New compounds follow
The line under a structure holds: miR-21 reporter, Rango complex inh, GLA inh pH 4.5, Rango release inh
> O=C1c2ccccc2C(=O)N1Cc1nc2ccccc2c(=O)n1CCCN1CCOCC1
  -8%, -4.2%, -5, 2%
> CS(=O)(=O)N(CC(=O)Nc1ccc2c(c1)OCCO2)Cc1ccccc1
  0%, 1.8%, 8, -8%
> c1ccc(N2CCN(c3nc(-c4ccccn4)nc4ccccc34)CC2)cc1
  ?, 2.2%, -1, 12%
> Cc1cc(C)c(S(C)(=O)=O)c(N(C)NC(=O)c2c(F)cccc2F)n1
  -1%, -0.9%, 9, 17%
> O=C(CNC(=O)c1ccco1)Nc1ccc(Br)cc1
  -67%, -1.3%, /, 1%
> O=C(COC(=O)CNC(=O)c1ccc(Cl)c([N+](=O)[O-])c1)NNC(=O)c1cccs1
  /, -2.3%, /, -1%
> CC1(C)CC2CC(C)(CN2C(=O)c2ccc([N+](=O)[O-])cc2[N+](=O)[O-])C1 (stereo not drawn)
  4%, 4.1%, -1, -5%
> CCCCn1c(N)c(N(CCOC)C(=O)COC(=O)COc2ccc(CC)cc2)c(=O)[nH]c1=O
  /, -6.1%, /, 9%
> c1ccc2cc(-c3cc4ccccn4c3)ccc2c1
  -29%, ?, -2, ?
> CCCNC(=O)Nc1cc(S(=O)(=O)CC)ccc1O
  1%, 3.4%, 0, ?
> Cc1cc(CNC(=O)CC2C(=O)NCCN2Cc2ccccc2C(F)(F)F)nn1C (stereo not drawn)
  -1%, 2.6%, -5, -3%
> CCOC(=O)C1CCN(Cc2cnc(Oc3ccc(OC)cc3)s2)CC1
  -1%, ?, -15, -18%
> O=C(COC(=O)c1nc(Cl)ccc1Cl)NCc1cccs1
  /, -3.5%, /, 2%
> CCCCSc1nc(N)nc2c1ncn2C1OC(CO)C(O)C1O (stereo not drawn)
  /, -0.1%, /, -1%
> COc1ccccc1-c1cc(C(F)(F)F)nc(S(C)(=O)=O)n1
  ?, -1.2%, 10, 4%
> CCC(C)(C)NC(=O)CN(Cc1cccs1)C(=O)CNS(=O)(=O)c1ccc(C)cc1
  -5%, -1.5%, 1, -15%
> Cc1oc(-c2cccs2)nc1CN1CCN(C(C)C)C(CCO)C1 (stereo not drawn)
  3%, -2.5%, -1, -15%
> c1ccc(C[C@H]2CNCCN2CCCCC2CCCCC2)cc1
  /, ?, /, -15%
> O=C(Cn1cccc1)N1CCc2ccccc21
  -10%, 3.1%, 1, -13%
> CCCCC(=O)NC(=S)Nc1c(C)cc(Br)cc1C
  -11%, ?, -5, -24%
> Cc1ccc(C)c(N(C(=O)Cn2nnc3ccccc32)C(C(=O)NC(C)(C)C)c2ccsc2)c1 (stereo not drawn)
  1%, -2.3%, 0, -6%
> CC(C)CN(CC(C)C)C(=O)COc1ccccc1C(N)=O
  -1%, 0.8%, 25, 17%
> COc1ccccc1OCCSc1nnc(CNC(=O)c2ccco2)n1C
  -2%, -2.0%, /, 5%
> Cc1cc(C)c(NC(=O)Cn2c(=O)c3cccn3c3ccccc32)c(C)c1
  ?, -0.1%, /, 0%
> COc1ccc(Cl)cc1NC(=O)CCN1CCOCC1
  0%, 2.0%, -1, -17%
> CC1(C)CC(=O)CC(=O)/C1=N\Nc1c(Cl)cc(Cl)cc1Cl
  -1%, -0.3%, -17, -8%
> CCCN(C(=O)c1ccco1)c1nnc(-c2ccccc2C)s1
  -42%, 0.0%, 8, -1%
> COc1ccccc1CNS(=O)(=O)c1ccc(Cl)s1
  -6%, 2.5%, /, -4%
> O=C(O)C1CC=CCC1C(=O)N1CCN(c2nc(-c3ccccc3Cl)c3cc(Br)ccc3n2)CC1 (stereo not drawn)
  -7%, ?, -3, ?
> Cc1nc2ccccc2n1CC(=O)NN
  -1%, 0.6%, 7, 1%
> O=C(c1cccc(S(=O)(=O)Nc2ccccc2Cl)c1)N1CCN(c2ccccc2O)CC1
  /, 2.5%, /, 1%
> O=C(NCC1CCCO1)C1CCN(S(=O)(=O)c2ccccc2)CC1 (stereo not drawn)
  -1%, -1.6%, 7, -14%
> CN(C)S(=O)(=O)c1ccc(Cl)c(C(=O)NCC2CCCCC2)c1
  1%, 1.6%, /, -8%
> COc1ccc(/C=C2\CCc3ccccc3C2=O)cc1CN1CCOCC1
  -47%, 1.5%, -10, 1%
> CCCc1c(O)nc(SCC(=O)O)[nH]c1=O
  1%, 1.0%, 3, -3%
> Cc1ccc(C(=O)OCC(=O)Nc2cccc(S(=O)(=O)N3CCCCC3)c2)o1
  /, -1.2%, /, 0%
> O=C(NC(N1CCOCC1)C(Cl)(Cl)Cl)c1cc([N+](=O)[O-])cc([N+](=O)[O-])c1 (stereo not drawn)
  2%, 2.5%, 3, 1%
> CCOC(=O)N1CCC(N(CCN(C)C)C(=S)Nc2cc(C)ccc2C)CC1
  -4%, -0.8%, -4, -2%
> C[C@@]12CCC3[C@@](CCC4[C@@]3(C)CCC[C@@]4(C)C(=O)O)(CC1=O)C2 (stereo partly drawn)
  /, 0.1%, /, 4%
> CCC(C)Oc1cccc(C(=O)Nc2ccccc2N2CCOCC2)c1 (stereo not drawn)
  9%, 2.8%, -13, 18%
> Cc1ccc(S(=O)(=O)N(CC(=O)Nc2ccccc2)C(=O)N2CCN(C)CC2)cc1
  /, 0.5%, /, 4%
> Cc1cc2c3c([nH]c2cc1S(=O)(=O)NCc1ccc(CN2CCCCCC2)o1)CC(C)(C)CC3=O
  -3%, -0.1%, /, -5%
> COc1ccc(NC(=O)c2ccc(S(=O)(=O)N3CCOCC3)o2)cc1
  2%, 6.4%, 1, 0%
> Cc1nn(CC(=O)NCCCc2ccccc2)c(=O)c2cc3occc3n12
  0%, 0.0%, /, 4%
> COc1ccc(NC(=O)CS(=O)c2cccc(Cl)c2)cc1 (stereo not drawn)
  -1%, -0.8%, /, -1%

Carrying on.
SMILES,miR-21 reporter,Rango complex inh,GLA inh pH 4.5,Rango release inh
O=C(c1ccoc1)N1CCCC(N2CCN(c3ccc(F)cc3)CC2)C1 (stereo not drawn),-2%,0.1%,/,-9%
N/C(=N\OC(=O)Cc1ccc(Cl)cc1)c1cccnc1,-27%,?,-5,1%
Cc1cc(C)cc(-n2ncc3c2CCCC3NC(=O)c2csnn2)c1 (stereo not drawn),-29%,0.1%,/,-2%
CC1=NN(Cc2ccccc2)C(=O)C1C(c1ccncc1)C(C#N)C#N (stereo not drawn),13%,-0.1%,0,7%
CCNC(=O)N1CCCC(C(=O)c2ccc(-c3ccccc3)cc2)C1 (stereo not drawn),-10%,-0.1%,/,-5%
Cc1cccc2c1cnn2C(=O)CCC(=O)N1CCC(C)CC1,4%,-2.9%,/,-1%
O=C1CC(c2nc3ccccc3[nH]2)CN1c1cccc(C(F)(F)F)c1 (stereo not drawn),4%,-5.1%,-9,7%
O=C(NNC(=O)c1ccc(-n2cncn2)c([N+](=O)[O-])c1)c1cccc(Cl)c1,/,-4.3%,/,8%
CC(=O)Cn1cnc2sc(-c3ccccc3)cc2c1=O,-60%,4.7%,-5,1%
Cn1c(Cc2cccc3ccccc23)nnc1SCc1ccc([N+](=O)[O-])cc1,-3%,0.3%,-6,-5%
Cc1cc(OCC(=O)N(C)Cc2ccccc2)ccc1Br,-49%,1.0%,/,-11%
COc1ccc(C2(c3ccc(OC)cc3)NC(=O)N(CC(=O)NC3(C#N)CCCCC3)C2=O)cc1,/,-0.2%,/,-3%
CC(=O)Oc1ccc2occ(/C=N/c3cc(=O)[nH]c(=S)[nH]3)c(=O)c2c1,7%,1.7%,-10,10%
Cn1c(=O)c(C(=O)c2ccc(S(C)(=O)=O)c(Cl)c2Cl)c(O)c2ccccc21,/,0.7%,/,-15%
O=C(COc1ccc2ccccc2c1)NNC(=O)c1cccs1,-9%,-1.1%,1,-5%
CCCn1c(=O)c2ccccc2n2c(SCCOc3ccc(OC)cc3)nnc12,2%,3.1%,-2,-4%
COc1cc(S(=O)(=O)n2nc(C)cc2C)ccc1Cl,0%,4.6%,/,-12%
Cc1[nH]c2ccccc2c1/C=N/NC(=O)c1cccc(Br)c1,-14%,8.3%,/,20%

Of the compounds above, these have a CF3 group:
SMILES,miR-21 reporter,Rango complex inh,GLA inh pH 4.5,Rango release inh
Cc1cc(CNC(=O)CC2C(=O)NCCN2Cc2ccccc2C(F)(F)F)nn1C (stereo not drawn),-1%,2.6%,-5,-3%
COc1ccccc1-c1cc(C(F)(F)F)nc(S(C)(=O)=O)n1,?,-1.2%,10,4%
O=C1CC(c2nc3ccccc3[nH]2)CN1c1cccc(C(F)(F)F)c1 (stereo not drawn),4%,-5.1%,-9,7%

Compound activity deposited in PubChem BioAssay by National Center for Advancing Translational Sciences (NCATS).

The list is partial. The share of hits here may be higher or lower than overall.
